Source: PubChem BioAssay (National Center for Advancing Translational Sciences (NCATS))
Six1-Eya2 inh: inhibitors of human Six1/Eya2 interaction | Q15475+O00167 | AlphaScreen GST-Six1/His-Eya2 binding, biochemical; hits give low values; control for the full effect not named in the record | activity change, % (test concentration not listed) | 360,000 tested, 0.56% active | AID 651725; in the data active = activity change below about -65%; inconclusive = about -30% to -65%; inactive = above about -30%; also: % is scaled to controls: 0 for no effect and ±100 for the full control effect; compound concentration not given in the record
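GST-Six1 + His-Eya2 (5X stock: 250/500 nM); Tris pH 8.0, 300 mM NaCl, 0.05% BSA, 0.02% Tween 20; GSH donor/Ni acceptor beads; 1 h 37 °C dark; AlphaScreen readout.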
CtBP-E1A inh: inhibitors of CtBP/E1A interaction; activity change, % (test concentration not listed); 340,000 tested, 0.49% active; AID 651724; AlphaScreen GST-E1A/His-CtBP binding, 1536-well; hits give low values; control for the full effect not named in the record; in the data active means activity change below about -65%; inconclusive means about -30% to -65%; inactive means above about -30%; also: % is scaled to controls: 0 for no effect and ±100 for the full control effect; compound concentration not given in the record
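Steps: dispense buffer (Tris pH 8.0, NaCl 300 mM, TCEP 1 mM, BSA, Tween 20); add 5X protein mix (GST-E1A, His-CtBP, 125 nM each); pin 23 nL compound; 2 h at 37 °C, dark; add 5X beads (50 ug/mL); 1 h; read.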
D2 agonist: agonists of human D2 dopamine receptor (beta-arrestin). 360,000 tested, 0.084% active. AID 624465. activation, % (test concentration not listed). DiscoveRx PathHunter D2 beta-arrestin, luminescence, 90 min; 100% = 57 uM dopamine signal. P14416; in the data active = activation above about 40%; inconclusive = about 15% to 40%; inactive = below about 15%; also: compound concentration not given in the record; the text of the record calls up to 30% inactive
Target sequence (P14416 whole entry, looked up): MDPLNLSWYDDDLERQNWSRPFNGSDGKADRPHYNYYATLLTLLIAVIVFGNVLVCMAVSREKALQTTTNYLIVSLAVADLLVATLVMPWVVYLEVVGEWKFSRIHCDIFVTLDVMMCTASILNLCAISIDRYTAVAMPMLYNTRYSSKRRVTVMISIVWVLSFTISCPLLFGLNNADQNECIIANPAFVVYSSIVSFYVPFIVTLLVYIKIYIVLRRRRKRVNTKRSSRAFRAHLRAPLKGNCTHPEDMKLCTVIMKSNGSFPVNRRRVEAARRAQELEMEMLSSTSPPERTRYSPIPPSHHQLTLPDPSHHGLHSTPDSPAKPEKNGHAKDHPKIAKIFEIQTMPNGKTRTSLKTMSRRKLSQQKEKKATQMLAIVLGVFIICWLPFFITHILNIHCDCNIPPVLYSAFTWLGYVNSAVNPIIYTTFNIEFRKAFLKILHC
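Agonist mode: compounds alone added to overnight-plated D2 PathHunter cells for 90 min at 37 C, with 57 uM final dopamine (EC100) defining full response. Beta-arrestin recruitment detected by chemiluminescent reagent, read after 1 h at ambient temperature.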
D2 PAM: human D2 receptor positive allosteric modulation. DiscoveRx D2 beta-arrestin cells, luminescence, 90 min; 100% = 57 uM dopamine signal. potentiation, % (no concentration beside the values). 360,000 tested, 0.23% active. AID 624464; active = potentiation of 50% or more; inconclusive = 30% to 50%; inactive = 30% or less;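 also: compound concentration not given in the record; tested on top of an EC20 dose of dopamine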
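D2 cells co-treated with compound plus 50 nM dopamine (EC20) for 90 min at 37 deg C to detect potentiation. Beta-arrestin recruitment was read as enzyme-fragment luminescence after 1 h at ambient temperature. Full response was set by 57 uM dopamine.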
gsp antag: gsp mutant antagonism; gsp-mutant cells, cAMP HTRF, 30 min; control for the full effect not named in the record; Potency, µM (titrated, usually from 76.9 µM), inactives show top-dose activity change, negative = inhibition, most hits filed as inhibitors; 340,000 tested, 0.4% active; AID 624288; active = falling curve of any shape with a large fitted effect; inconclusive = falling curve, mostly with a smaller effect; inactive = flat or rising curve; cell line not stated here;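 also: intracellular cAMP measured with PDE inhibitor Ro 20-1724 present during compound exposure; potency is read from the fitted curve at half-maximal effect; % is scaled to controls: 0 for no effect and ±100 for the full control effect; nearly all actives have a fitted effect of over 65% in size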
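Cells in G418 medium, seeded 16-24 h, 37C; buffer exchange to DPBS + 1 mM CaCl2, 0.5 mM MgCl2, 0.05% BSA; cpds in DMSO + […] (300 uM stock), 30 min 37C; HTRF cAMP detection.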
gsp agonist: agonists of gsp mutant (McCune-Albright syndrome); Potency, µM (top dose mostly 76.9 µM), without a hit: top-dose activation (cAMP increase), usual class: activators; 340,000 tested, 0.13% active; gsp mutant cells, cAMP HTRF, 30 min; control for the full effect not named in the record; AID 624287; active = well fitted activation curve with a large enough effect; inconclusive = small, poorly fitted or top-dose-only effect, or another doubt; inactive = no such curve, though single readings can be large or run the other way; cell line not stated here;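 also: phosphodiesterase inhibitor Ro 20-1724 added with compounds to block cAMP breakdown; potency is read from the fitted curve at half-maximal effect; nearly all actives have a fitted effect of over 60% in size; about a fifth of the inactives were tested at one dose only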
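Cells stably selected in G418 were plated at 2000/well, grown 16-24 hr, then given compounds in DMSO with the PDE inhibitor […] (300 uM solution added) for 30 min at 37C; cAMP was read by HTRF.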
Active calls of the source: *; ? = inconclusive; nt = not tested or not shown; [ ] = dose if it differs, or a comment.

SMILES	Six1-Eya2 inh	CtBP-E1A inh	D2 agonist	D2 PAM	gsp antag	gsp agonist
Cc1ccc(Oc2ncccc2COC(=O)Nc2ccccc2C)cc1	16	nt	6.7	-6	-7%	7%[15.4 µM]
Cc1ccc2nc(N3CCN(C=O)CC3)nc(-c3ccccc3)c2c1	30	5	-1.1	-6	-16%	18%
S=C(Nc1ccc(Oc2ccccc2)cc1)N(CCCN1CCOCC1)Cc1ccccn1	4	-7	-2.8	-5	9%	-1%[15.4 µM]
Cn1c(NN)nc2c1c(=O)n(Cc1ccccc1)c(=O)n2C	-7	0	3.7	4	?	-8%
Cc1ccc(N=Cc2sccc2C)cc1C	0	-5	-4.7	1	12%	9%
Cc1ccc(N2C(=O)C(CN3CCCC3)C2c2ccccc2)cc1 (configuration not stated)	1	13	-3.8	-18	8%	-13%[15.4 µM]
CCc1cc(=O)[nH]c(SCC(=O)NCC2CCCO2)n1 (configuration not stated)	-5	1	-1.4	-2	1%	-2%[15.4 µM]
COc1ccc(-n2c(COc3cccc4ccccc34)nnc2SC(C)C(=O)O)cc1 (configuration not stated)	2	4	-0.2	0	-4%	-14%[15.4 µM]
Cc1c(NC(=O)C2(c3ccccc3)CCCC2)c(=O)n(-c2ccccc2)n1C	1	3	-1.8	-26	13%	-16%
COc1ccc(C(c2nnnn2C2CCCC2)N2CCC(C)CC2)cc1 (configuration not stated)	-3	5	-6.0	-19	-5%[15.4 µM]	-26%
O=C1NC(C2CC3C=CC2C3)Nc2ccccc21 (configuration not stated)	1	3	-9.7	-3	nt	-14%
COC(=O)c1cc(S(=O)(=O)NCc2ccccc2OC)cn1C	6	nt	-3.3	-10	-1%	6%
OC(c1ccc(F)cc1)(C1CCCCC1)C(CN1CCOCC1)c1ccccc1 (configuration not stated)	0	-3	2.4	0	8%	-35%[inhibitor]
CCOC(=O)c1cnc(SCc2ccc(C)cc2)nc1N	24	23	0.7	1	4%	-28%
COc1ccccc1NC(=O)/C=C\c1ccco1	-7	2	-1.2	0	4%	3%
O=C(O)C/C=C(\NC(=O)OCc1ccccc1)C(=O)OCc1ccccc1	2	nt	-1.8	-5	-4%	19%
Cc1nnc(NC(=O)c2cc(S(=O)(=O)N(C)C)ccc2N2CCCC2)s1	4	nt	-1.6	-3	0%	-4%
CCc1nc2ccc(C(=O)NCCc3ccccn3)cn2c1N(CC)Cc1cccc(Br)c1	-2	-8	2.3	-8	nt	nt
CN(c1ccc(C(=O)NCc2ccc3c(c2)OCO3)cc1)S(C)(=O)=O	4	-1	1.9	0	4%	14%
Cc1cnc(C(=O)Nc2ccc3c(c2)CCC3)cn1	-1	0	-0.9	-10	-16%	-39%[inhibitor]
CCOc1ccc(Nc2nc(-c3sc(N)nc3C)cs2)cc1	-18	-18	7.6	-3	-7%	-26%
O=C(O)C1Cc2ccccc2CN1S(=O)(=O)/C=C/c1ccccc1 (configuration not stated)	6	3	1.0	-1	2%	5%
COc1ccc(C(=O)C(C)C(C)=O)c(OCc2ccccc2)c1OC (configuration not stated)	14	-10	3.3	-13	-1%	-7%
CONc1nc(NC(C)(C)C)nc(OCC#N)n1	4	-4	-2.1	-4	11%	14%
Cc1ccc(NC2=NCCCCC2)cc1	4	8	0.2	7	18%	3%

Profiles, looked up by structure. Values in the order: Six1-Eya2 inh, CtBP-E1A inh, D2 agonist, D2 PAM, gsp antag, gsp agonist
O=C(O)C/C=C(\NC(=O)OCc1ccccc1)C(=O)OCc1ccccc1 in the list: 2, nt, -1.8, -5, -4%, 19%
Cc1ccc(Oc2ncccc2COC(=O)Nc2ccccc2C)cc1 in the list: 16, nt, 6.7, -6, -7%, 7%[15.4 µM]
O=C(O)C1Cc2ccccc2CN1S(=O)(=O)/C=C/c1ccccc1 (configuration not stated) in the list: 6, 3, 1.0, -1, 2%, 5%
Cc1ccc2nc(N3CCN(C=O)CC3)nc(-c3ccccc3)c2c1 in the list: 30, 5, -1.1, -6, -16%, 18%
CCc1cc(=O)[nH]c(SCC(=O)NCC2CCCO2)n1 (configuration not stated) in the list: -5, 1, -1.4, -2, 1%, -2%[15.4 µM]

Additional results follow:
SMILES	Six1-Eya2 inh	CtBP-E1A inh	D2 agonist	D2 PAM	gsp antag	gsp agonist
COc1cccc(SCc2noc(C(=O)NCCC(C)C)c2C(=O)NCCC(C)C)c1	-21	9	-2.2	-6	-3%	28%
CCN(CC(=O)Nc1ccc(OC)c(Cl)c1)CC(=O)NC(C)C	-4	-23	0.1	-2	-16%	-6%[15.4 µM]
c1ccc(C(c2ccccc2)c2noc(CN3CCN(CC4CC4)CC3)n2)cc1	-6	2	0.7	-27	1%	28%
COC(=O)c1cc(NS(=O)(=O)c2ccc(F)cc2)ccc1N1CCOCC1	-3	nt	-2.8	2	0%	-30%[inhibitor]
O=C(c1cc(-c2ccccc2)nn1-c1ccccc1)N1CCN(S(=O)(=O)c2cccc(F)c2)CC1	7	7	-3.1	-25	7%	11%
Cc1ccsc1C(C(=O)NCc1ccccc1)N(C(=O)c1csnn1)c1ccccc1 (configuration not stated)	-7	-2	-0.7	-3	6%	-14%
CSCCOC(=O)COc1ccc(/C=N/NC(=O)c2c(Cl)cnn2C)cc1	-11	-17	-4.5	-3	-7%	7%[15.4 µM]
COc1ccc(S(=O)(=O)NCC2CCCO2)cc1NC(=O)c1ccc(Cl)cc1 (configuration not stated)	7	-15	-7.2	-22	-7%	-7%[15.4 µM]
O=C(CCS(=O)(=O)c1ccccc1)N(CCCN1CCOCC1)c1nc2ccccc2s1	-1	6	-5.0	-23	4%	2%
COc1ccc(C2c3c(n[nH]c3C)CC(C)(O)C2C(C)=O)cc1OC (configuration not stated)	0	1	0.2	-4	5%	?
COc1ccc(CC(=O)Nc2cccc(-c3cn4ccccc4n3)c2)cc1	-16	-4	-0.4	5	-17%	3%
C=CCOc1ccccc1C1NC(=O)NC(C)=C1C(=O)NCc1ccccc1 (configuration not stated)	-1	4	-2.0	-8	1%	-3%
O=C(COn1nnc2ccccc21)NCC1CCCCC1	4	6	1.3	-4	2%	7%
S=c1[nH]nc(CSc2nc3ccccc3s2)o1	-3	0	-3.8	-12	-12%	?
Cc1ccc(NC(=O)Cn2c(O)c(N=NS(=O)(=O)c3ccc(C)cc3)c3ccccc32)cc1	5	-9	-12	-36	6%	0%
Nc1ccccc1-c1nc2ccccc2[nH]c1=O	-3	nt	0.0	-11	-16%	-3%
CC(C)CNS(=O)(=O)c1cc(C(=O)OC2CCOC2=O)c(Cl)cc1Cl (configuration not stated)	20	5	-0.4	0	?	14%[15.4 µM]
Clc1ccc(/C=N/Nc2nn[nH]n2)cc1	-1	0	-4.9	-9	-5%	-50%[inhibitor]
COc1ccc(-n2ncc3c(NCC4CCCO4)ncnc32)cc1 (configuration not stated)	-13	-12	0.9	6	6%	16%
O=C(Nc1ccc(F)cc1)c1cc(-c2ccccn2)nc2c(Cl)cccc12	9	4	8.7	5	5%	?
O=C1C=CC(=O)C(C2=C3C(=O)N(CCc4ccccc4)CC(=O)N3CCC2)=C1	?	-1	12	-44	9%	-19%
COc1cccc(C(=O)Nc2ccccc2N2CCN(C(=O)c3ccccc3)CC2)c1	-5	nt	2.8	8	25µM*	6%
CCCCN(C(=O)c1c(C)noc1C)c1c(N)n(CCC)c(=O)[nH]c1=O	0	nt	1.2	-5	-1%	-28%
COc1ccc(C2NC(=S)NC(C)=C2C(=O)Nc2ccccn2)cc1OC (configuration not stated)	1	2	0.6	-12	4%	35%
Nc1nc(CN2CCN(C(=O)c3ccco3)CC2)nc(Nc2cccc(Cl)c2)n1	-17	3	?	27	-5%	-2%[15.4 µM]

Continuation.
SMILES	Six1-Eya2 inh	CtBP-E1A inh	D2 agonist	D2 PAM	gsp antag	gsp agonist
CCCC1C(=O)Nc2ccccc2N1C(=O)c1cccc(C)c1 (configuration not stated)	-4	-2	8.2	-13	-2%	8%
N#Cc1ccc(OCc2nnc(-c3ccc([N+](=O)[O-])cc3)o2)cc1	-10	-10	5.0	2	-2%	-30%
O=C(COC(=O)Cn1cnc2ccccc2c1=O)NCCC1=CCCCC1	3	-5	0.3	9	-3%	12%
O=C(Oc1ccc2c(c1)OCO2)c1ccncc1	-3	0	0.1	1	-6%	-32%[inhibitor]
N=C1/C(=C\c2ccc(-c3ccc(C(=O)O)cc3)o2)C(=O)N=C2SC=C(c3ccccc3)N12	-7	-14	-4.7	-4	-20%	6%
O=C(COc1ccccc1)N1CCCC1	17	6	-5.8	-1	7%	20%[15.4 µM]
COc1ccc(C2/C(=C(\O)c3ccc(OC)c(Cl)c3)C(=O)C(=O)N2CCN(C)C)cc1 (configuration not stated)	2	2	-3.6	-3	7%	0%
Cc1ccc(-n2c(-c3ccncc3)n[nH]c2=S)c(C)c1	4	2	-4.4	-1	-17%	0%
C=CCC1CCCCC1=C(C#N)c1ccccc1 (configuration not stated)	30	5	-3.0	-3	nt	-34%[inhibitor]
COc1cc(NC(=O)c2ccc(OC)c([N+](=O)[O-])c2)ccc1NC(=O)c1ccco1	6	-11	-2.7	-7	-2%	31%
O=S(=O)(NCCc1ccc(Cl)cc1)c1cccs1	4	9	3.0	-12	3%	3%
O=C(OCc1ccc2c(c1)OCO2)c1ccc(S(=O)(=O)N2CCCCC2)cc1	9	7	-4.4	-3	2%	0%
CNC(=S)N/N=C(\C)c1ccc(-n2ccnc2)cc1	-12	-5	0.0	6	0%	-5%
COc1cc2cccc(OC)c(=O)c2c(OC)c1OC	4	8	5.2	-13	3%	nt
O=S(=O)(Nc1ccc(-c2ccc3nncn3n2)cc1)c1ccc(Cl)s1	-28	-12	7.6	22	-7%	-1%[15.4 µM]
O=C(Nc1c(Br)cc2c(c1Br)Cc1ccccc1-2)C(Cl)Cl	6	7	2.3	-10	3%	?
COC(=O)COc1ccc2c(=O)c(-c3ccccc3)coc2c1	4	12	-0.3	4	-22%	9%[15.4 µM]
CC1CCC/C(=N\NC(=S)Nc2ccccc2)C1 (configuration not stated)	-19	-12	-0.7	-15	1%	17%
CSc1cc(SC)ncn1	8	9	2.6	-2	6%	-23%
COc1ccc(CCN(C)C(=O)COc2ccc(C(=O)c3ccccc3)cc2)cc1OC	-1	5	-1.6	9	-4%	-27%
CCCN(C(=O)c1cccs1)c1nnc(-c2ccncc2)s1	7	5	0.1	5	-15%	0%
OCC1OC(n2ccc3c2ncn2ncnc32)C(O)C1O (configuration not stated)	7	0	-3.1	-10	nt	28%
CCCCCCCCCCCNC(=O)c1ccoc1C	14	9	-2.8	-1	-15%	5%
CCOCCCNCc1cccc(OCc2ccc(F)cc2)c1	3	-7	-3.3	-29	16%	-14%
